UCH37 DUB inh: blocks the human deubiquitinase UCH37 | purified proteasome/UCH37, Ub-AMC cleavage fluorescence | inhibition, % (test concentration not listed) | 330,000 tested, 0.33% active;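 active = mean of two replicates above 20%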;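 also: 0% = compound-free wells with enzyme and 100% = wells lacking proteasome; stock transfer was 100 nL into about 20 µL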
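Test system – human UCH37 enzyme supplied as purified proteasome complex · Incubation – 30 min preincubation with enzyme, 25 min cleavage at room temperature · Detection – AMC fluorescence from Ub-AMC cleavage, excitation 355 nm, emission 460 nm · Benchmarks – no-proteasome wells (full inhibition) and compound-free wells (no inhibition)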
HNF4A DNA FP: change in binding of human HNF4 alpha to DNA | P41235 | HNF4a-FITC DNA binding, fluorescence polarization, 1 h | activity change, % at 10 µM | 360,000 tested, 0.3% active | AID 1224865; in the data active = activity change above about 30%, passing the limit was not always enough;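 also: controls were the assay level and a saturating level of protein; the project sought stronger binding though the title names inhibitors; some compounds called inactive have numbers as strong as hits; positive values seem to mean higher polarization but the record does not say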
FGF22 binding: FGF22 (human) thermal shift binding; Q9HCT0; calls only at 9.99 µM; 340,000 tested, 1.5% active; recombinant FGF22 thermal shift, SYPRO orange fluorescence; percent of sucrose octasulfate shift, DMSO zero;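 active = melting point raised past a set limit in the mean and every replicate; three in four hits are not shown here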
Target sequence (Q9HCT0 whole entry, looked up): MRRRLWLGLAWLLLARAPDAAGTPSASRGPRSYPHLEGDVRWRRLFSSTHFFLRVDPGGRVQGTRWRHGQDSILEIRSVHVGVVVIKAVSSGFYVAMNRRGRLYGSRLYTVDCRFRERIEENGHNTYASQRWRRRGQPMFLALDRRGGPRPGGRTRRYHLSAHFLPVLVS
E coli growth: inhibitors of Escherichia coli growth. AID 1053175. OD600, 23 h; hits give low values. OD600 absorbance (no concentration beside the values). 330,000 tested, 0.21% active;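 active = OD600 absorbance below the run mean of sample wells minus 3.6 SD, in any replicate, cut at about 0.56 in these data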;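 also: stock transfer was 300 nL into about 60 µL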
ALR inh: inhibitors of human sulfhydryl oxidase ALR | purified ALR, DTT oxidation, H2O2 HRP-luminol luminescence | inhibition, % (concentration not given with the values) | 290,000 tested, 3.8% active;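 active = mean and each replicate at 75% or more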;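 also: stock transfer was 7.5 nL into about 7.5 µL; 0% = neutral wells and 100% = wells with inactivated enzyme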
Target sequence (P55789 whole entry, looked up): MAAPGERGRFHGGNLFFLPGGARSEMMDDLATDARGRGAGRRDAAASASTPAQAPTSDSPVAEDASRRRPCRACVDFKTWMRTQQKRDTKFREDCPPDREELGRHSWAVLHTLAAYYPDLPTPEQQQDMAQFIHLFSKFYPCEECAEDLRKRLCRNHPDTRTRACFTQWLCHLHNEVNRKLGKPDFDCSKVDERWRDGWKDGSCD
B2AR ag: human beta-2 adrenergic receptor agonism by FAP. P07550. Am2.2-beta2AR cells, FAP receptor internalization, flow cytometry; reference of the scale not given here. response, % (concentration not given with the values). 340,000 tested, 0.43% active. AID 504454;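 active = response above a set limit, near 3 SD of response in nonfluorescent compounds, cut at about 42% in these data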;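 also: stock transfer was 100 nL into about 11 µL; a reference agonist was the positive control; negative values mostly stem from fluorescent compounds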
Target sequence (P07550 whole entry, looked up): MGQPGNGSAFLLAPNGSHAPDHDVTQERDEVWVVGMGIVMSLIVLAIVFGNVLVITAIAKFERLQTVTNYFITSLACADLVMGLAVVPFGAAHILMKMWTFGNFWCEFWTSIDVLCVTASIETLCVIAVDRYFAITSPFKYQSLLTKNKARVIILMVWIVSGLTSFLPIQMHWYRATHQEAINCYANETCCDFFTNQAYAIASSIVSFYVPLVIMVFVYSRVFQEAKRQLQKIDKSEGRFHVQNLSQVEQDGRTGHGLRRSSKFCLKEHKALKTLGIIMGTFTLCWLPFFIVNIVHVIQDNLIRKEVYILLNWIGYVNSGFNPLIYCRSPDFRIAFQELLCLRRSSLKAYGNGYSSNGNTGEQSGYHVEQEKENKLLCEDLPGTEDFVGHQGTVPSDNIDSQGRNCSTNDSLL
Ecoli rRNA inh: selective bacterial rRNA inhibition in E. coli; AID 720706; GFP signal change (wild-type ribosome), % (no concentration beside the values); 350,000 tested, 1.6% active; E. coli WT GFP vs humanized-ribosome RFP mutants, fluorescence, 24 h; hits give low values; DMSO median 0, no signal -100;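 active = significant combined selectivity score with lowered wild-type GFP, culture density cut under 30%, mutant RFP and density less affected; inactive = any of these conditions unmet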; also: one replicate is shown; some compounds called inactive have numbers as strong as hits
Ecoli rRNA inh OD600: second read-out of Ecoli rRNA inh, no call of its own (marks repeat the call); OD600 change, %; measured here: OD600 growth;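 optical density of the mix in the first replicate; 0 = DMSO median and -100 = no signal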
Ecoli rRNA inh RFP: second read-out of Ecoli rRNA inh, no call of its own (marks repeat the call); RFP signal change, %; measured here: RFP humanized mutant strains;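 first replicate; 0 = DMSO median and -100 = no signal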
Active calls of the source: *; i = inactive; · = not tested or not shown; + = active, no number. A portion of the library (hit frequency here may not be typical).

The opening 4 compounds (preview)
Ecoli rRNA inh RFP	HNF4A DNA FP	E coli growth	Ecoli rRNA inh	FGF22 binding	B2AR ag	ALR inh	UCH37 DUB inh	Ecoli rRNA inh OD600	SMILES
5.7	-2.5	0.66	22	i	1	43	-1.8	18	CC(C)CN(C(=O)CN1CCN(c2ccccc2O)CC1)c1c(N)n(CC(C)C)c(=O)[nH]c1=O
2.2	1.5	0.72	20	i	11	-1	3.8	15	Cc1ccccc1NC(=O)Nc1ccccc1Br
3.3	-1.0	0.67	12	i	-1	-16	2.5	4	CC(=O)NC(Cc1cccc(F)c1)C(=O)NC1CCN(c2nnnn2-c2ccccc2)CC1 (stereo unspecified)
·	1.6	0.68	·	·	9	-10	5.0	·	CC(C)OCCCNC(=O)NC12CC3CC(CC(C3)C1)C2

The whole of this part, from the first entry:
Ecoli rRNA inh RFP	HNF4A DNA FP	E coli growth	Ecoli rRNA inh	FGF22 binding	B2AR ag	ALR inh	UCH37 DUB inh	Ecoli rRNA inh OD600	SMILES
5.7	-2.5	0.66	22	i	1	43	-1.8	18	CC(C)CN(C(=O)CN1CCN(c2ccccc2O)CC1)c1c(N)n(CC(C)C)c(=O)[nH]c1=O
2.2	1.5	0.72	20	i	11	-1	3.8	15	Cc1ccccc1NC(=O)Nc1ccccc1Br
3.3	-1.0	0.67	12	i	-1	-16	2.5	4	CC(=O)NC(Cc1cccc(F)c1)C(=O)NC1CCN(c2nnnn2-c2ccccc2)CC1 (stereo unspecified)
·	1.6	0.68	·	·	9	-10	5.0	·	CC(C)OCCCNC(=O)NC12CC3CC(CC(C3)C1)C2
-0.5	-2.1	0.64	7	i	-5	1	3.5	11	O=C(CCCCC(=O)NCCc1ccccc1)NCCc1ccccc1
-2.5	1.9	0.7	-1	i	-8	0	0.8	-14	Cc1ccc(S(=O)(=O)N(CC(=O)NCC2CCCO2)Cc2cccc(C)c2)cc1 (stereo unspecified)
-9.8	4.2	0.69	-4	i	4	-5	3.0	4	N#Cc1ccsc1NC(=O)CN1CCN(S(=O)(=O)c2ccc3ccccc3c2)CC1
-4.5	0.2	0.68	-17	i	-14	-3	4.8	-25	Cc1cc(CNC(=O)COc2ccc(F)cc2Cl)cc(C)c1O
6.7	4.6	0.68	1	i	0	-4	1.2	0	CCOc1nc(OCC)c2cnn(C)c2n1
-7.9	1.7	0.68	-6	i	-5	7	-4.4	-7	COc1ccc(C2=CN(Cc3ccccc3)C(c3ccccc3)CC2=O)cc1 (stereo unspecified)
·	4.1	0.71	·	·	-10	-5	4.7	·	COCCNC(=O)c1cc(-c2cccnc2)nc2ccc(Br)cc12
-3.0	0.2	0.7	6	i	4	-7	-2.2	-3	COC(=O)c1ccccc1N1CCS(=O)(=O)CC1
-7.8	-0.2	·	-20	i	0	99*	·	-14	COC(=O)CNC(c1ccccc1)c1cc(Br)ccc1N (stereo unspecified)
·	3.2	0.73	·	·	-12	-2	-1.9	·	c1ccc(-n2cnnc2SCc2cn3ccccc3n2)cc1
-0.2	-0.3	0.64	14	i	4	·	0.2	16	CC(=O)Nc1ccc(S(=O)(=O)NCCC(=O)OC(C)C(=O)NC2(C#N)CCCCC2)cc1 (stereo unspecified)
2.4	-2.4	0.67	0	i	-15	-6	3.5	-9	CCCCCCN1C2=NCCCN2c2ccccc21
·	2.5	0.72	·	·	0	-1	4.2	·	CCCNC(=S)NCCN1CCCCC1
-13	0.9	·	-50	i	0	3	4.4	-66	COc1ccc([C@@H]2CC=C(C(=O)O)[C@H](c3cccc(Cl)c3)N2S(=O)(=O)c2ccccc2C)cc1
-0.4	-1.8	0.64	0	i	-4	-9	0.7	5	CC(=O)c1cccc(NC(=O)N(c2ccccc2)c2ccccc2)c1
·	-4.5	0.71	·	·	-13	98*	1.2	·	CCC(Sc1nc2ccccc2s1)C(=O)Nc1nnc(C)s1 (stereo unspecified)
·	2.7	0.71	·	·	-4	6	2.4	·	COc1ccc(C2=[N+]([O-])C(C)(C)N(O)C2C)cc1 (stereo unspecified)
-1.8	6.0	0.72	5	·	3	4	1.2	9	Cc1ccc(NC(=O)NC2C(NC(=O)Nc3ccc(C)cc3)N(C)C(=O)N2C)cc1 (stereo unspecified)
4.1	0.7	·	3	i	2	-11	5.0	3	C=C1CCN([C@@H](Cc2ccccc2)C(=O)N2CCOCC2)S(=O)(=O)c2ccccc21
·	-4.7	0.71	·	·	4	·	5.5	·	COc1cccc(NC(=S)N2CCN(C/C=C/c3ccccc3)CC2)c1
-1.1	-1.4	0.58	-51	i	0	-13	3.9	-65	O=S(=O)(NCCC1=CCCCC1)c1c(Cl)cccc1Cl
·	-4.0	0.71	·	·	-7	-10	0.2	·	CC(C)NC(=O)Cn1c(SCC(=O)N2CCCCCC2)nc2ccccc21
1.0	-0.7	0.66	0	i	0	-4	2.4	-27	CCN(Cc1ccncc1)Cc1cn[nH]c1-c1ccc(OC)cc1F
-3.6	-3.7	0.7	-4	i	0	-2	3.3	-3	CC(=O)Nc1ccc(S(=O)(=O)NCc2nnnn2-c2ccc(F)cc2)cc1
-2.8	-2.6	0.7	6	i	4	-29	1.1	3	Cc1cccc(C)c1NC(=O)CSc1ccc([N+](=O)[O-])cn1
7.2	1.5	·	-12	i	·	·	·	-3	O=C1Nc2ccccc2N(C(=O)c2ccc(-c3ccccc3)cc2)C1c1nc2ccccc2[nH]1 (stereo unspecified)
0.7	5.1	0.69	5	i	-2	-24	2.5	12	CC(C)(C)OC(=O)N1CCCN(C(=O)c2ccc(Cl)cc2)CC1
·	·	0.72	·	·	52*	·	-0.5	·	COc1ccc(CS(=O)/C(Cl)=C(/Cl)C(=O)Nc2ccc(OC)nc2)cc1 (stereo unspecified)
·	-0.6	0.65	·	·	18	16	2.5	·	Oc1ccccc1N=Cc1sc2ccccc2c1Cl
-12	1.9	0.71	11	+	1	-4	2.0	-1	Nc1nccc(-c2ccc(-n3cccc3)cc2)n1
1.0	0.7	·	-6	i	-15	0	·	-2	CS/C(N)=N/N=C/c1cc(Br)cc(Br)c1O
-5.5	-1.5	·	-11	i	-25	-2	·	-2	NC(=S)N/N=C/c1cn(-c2ccccc2)nc1-c1cccnc1
-1.8	-0.2	0.7	3	i	10	-10	-1.0	4	O=C(COC(=O)COc1ccccc1)Nc1cccnc1Cl
0.3	-1.8	0.67	-3	i	7	4	-35	-6	O=C(O)c1sc2cc(C(F)(F)F)cnc2c1-c1cccs1
·	-0.4	0.72	·	·	-3	-14	3.9	·	CCOC(=O)C1CCN(C(C(=O)NC2CCCCC2)c2ccc(OC)cc2)CC1 (stereo unspecified)
-8.1	-1.4	·	-4	i	·	·	·	0	COc1ccc(Br)c(Cn2c(C)c(C(=O)NCc3cccc([N+](=O)[O-])c3)sc2=O)c1
-7.2*	-0.2	0.67	-21*	i	-10	-5	4.2	7.1*	O=C(COC(=O)c1ccc(O)cc1)Nc1ccccc1
0.8	0.7	0.71	13	i	-2	·	4.7	16	CC[C@]12c3[nH]c4cc(CCC(=O)N(C)C)ccc4c3CCN1C(=O)[C@@H](CC(=O)NCc1ccc(OC)c(OC)c1)C[C@@H]2C(=O)N1CCN(C(=O)c2ccco2)CC1
·	2.4	0.69	·	·	-5	·	1.9	·	COc1ccccc1NC(=O)N1CCCC1C(=O)Nc1ccc2c(c1)OCO2 (stereo unspecified)
-1.2	0.5	0.62	3	i	-4	·	11	5	O=C(O)c1ccccc1C=NNc1ccc([N+](=O)[O-])cn1
·	0.8	0.69	·	·	9	·	3.6	·	CCOC(=O)CSc1nnc(CNC(=O)c2cccs2)n1-c1cc(C)ccc1C
-2.1	3.4	0.64	-13	i	-8	1	1.9	-13	CC(=O)c1cnc2nc(SCc3ccc(C)cc3)nn2c1C
3.1	-2.0	·	-10	i	·	·	·	-10	CN(CCc1ccccc1)C(C(=O)Nc1ccc2c(c1)OCCO2)C1CC1 (stereo unspecified)
-1.4	3.2	0.68	2	i	-3	-7	0.6	3	COc1ccccc1CC(=O)NC1CC1
·	-4.1	0.74	·	·	-16	-1	1.0	·	Cc1sc2ncn(CC(=O)NCCCC(=O)N3CCN(c4ccccn4)CC3)c(=O)c2c1C
-2.4	-1.9	0.67	6	i	7	-2	5.3	5	CCOC(=O)c1c(NC(C)=O)sc2c(OC)c(Br)ccc12
1.2	4.1	0.7	2	i	-21	·	2.0	13	COCC1CCCCN1Cc1cn(-c2ccccc2)nc1-c1ccc2c(c1)OCO2 (stereo unspecified)
-0.2	-2.8	0.69	4	i	-1	·	6.1	-4	COc1ccc(-n2nnnc2-c2ccc(S(C)(=O)=O)cc2Cl)cc1
·	4.0	0.6	·	·	7	44	-0.2	·	CCOC(=O)c1c(N2C(=O)C=CC2=O)sc(C)c1C
·	0.2	0.77	·	·	0	41	-0.5	·	CCn1c(C)nc2cc(C(=O)NNS(=O)(=O)c3ccccc3F)ccc21
-1.8	5.0	0.64	3	i	-10	7	1.2	17	O=C(NCCS(=O)(=O)N1CCN(c2ccccc2)CC1)c1cccs1
1.1	1.3	0.6	5	i	-4	-4	1.6	10	CCCN(CC(=O)Nc1ccccc1C)C(=O)c1cn2ccccc2n1
·	3.0	0.67	·	·	-2	-8	6.3	·	Cc1ccc(S(=O)(=O)NCCc2ccncc2)cc1
0.8	4.2	0.69	-13	i	-3	-2	7.6	-16	COc1ccccc1CN1CC(C(=O)NCCc2ccc(Cl)cc2)CC1=O (stereo unspecified)
·	-1.5	0.68	·	·	0	-1	2.0	·	Cc1ccc(S(=O)(=O)NNC(=O)Nc2ccc(Cl)cc2)cc1
1.4	-0.3	0.74	-8	i	0	49	0.5	0	COc1ccc(OCC(=O)Nc2ccc3c(c2)nc(CN2CCN(C(C)=O)CC2)n3C)cc1

(list continues)
Ecoli rRNA inh RFP	HNF4A DNA FP	E coli growth	Ecoli rRNA inh	FGF22 binding	B2AR ag	ALR inh	UCH37 DUB inh	Ecoli rRNA inh OD600	SMILES
-2.7	0.2	0.69	0	i	0	-6	-3.0	-5	CC(C)(C)c1ccc(C(CC(=O)O)NC(=O)CCCc2ccccc2)cc1 (stereo unspecified)
3.5	1.6	0.69	-5	i	3	-1	3.5	-5	CS(=O)(=O)N(CC(=O)Nc1ccccc1C(=O)N1CCOCC1)c1cccc(F)c1
4.3	-6.3	·	10	i	·	·	·	-2	COc1ccc(NC(=O)C2(C)Cc3c(-c4ccc(C(N)=O)cc4)ccnc3O2)cn1 (stereo unspecified)
-4.0	0.2	0.77	8	i	4	-10	1.7	29	CN(C1CCCCC1)S(=O)(=O)c1ccc(S(=O)(=O)N2CCN(CCC#N)CC2)cc1
1.2	2.2	·	5	i	-2	-1	·	7	CCc1ccc(S(=O)(=O)N/N=C(/C)c2ccncc2)cc1
1.2	2.2	·	-6	i	·	·	·	-10	COc1ccc(Cl)cc1NC(=O)CN1C(=O)C(=O)N(C2CCCC2)C1=O
2.2	3.3	·	0	i	·	·	·	-21	Cc1ccc(F)cc1C(=O)N1CCCC(c2cc(C(=O)Nc3ccccc3Cl)no2)C1 (stereo unspecified)
-5.0	-0.8	0.68	-18	i	2	-1	-0.4	-34	Cc1cccn2c(=O)nc(SCC(=O)N3CCC(Cc4ccccc4)CC3)nc12
·	-0.7	0.69	·	·	0	-3	1.4	·	COc1ccc(C(C(=O)NC2CCCC2)N(C(=O)c2ccoc2C)c2ccc(C)cc2)cc1 (stereo unspecified)
-7.5	-0.8	0.68	16	i	-7	-5	0.6	7	O=C(CN(CC1CCCO1)C(=O)CNS(=O)(=O)c1ccc(Cl)cc1)NCCc1ccccc1 (stereo unspecified)
-3.1	-5.9	·	-22	i	-1	·	0.9	-22	O=C1NC[C@H](Cc2ccc(O)cc2)N(CCc2cccc3ccccc23)C1=O

Screens: PubChem BioAssay, several laboratories
